Ecoli rRNA inh – reduced GFP signal of wild-type E. coli, primary screen, bacterial rRNA inhibitor project, GFP/RFP fluorescence, OD600, single point. 1.6% of 350,000 active. E. coli WT GFP vs humanized-ribosome RFP mutants, 24 h; stronger effect = lower value; DMSO median 0, no signal -100. AID 720706, 2013. GFP signal change (wild-type ribosome), % (no concentration beside the values);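 active = significant combined selectivity score with lowered wild-type GFP, culture density cut under 30%, mutant RFP and density less affected; inactive = any of these conditions unmet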; also: one replicate is shown; some compounds called inactive have numbers as strong as hits
FGF22 binding – binders of human FGF22 protein, primary screen, FGF22 synaptogenesis inhibitor project, biophysical, thermal shift, single point. Fibroblast growth factor 22 (Homo sapiens), Q9HCT0. recombinant FGF22 thermal shift, SYPRO orange fluorescence; percent of sucrose octasulfate shift, DMSO zero. calls only at 9.99 µM. 1.5% of 340,000 active. AID 651658, 2012;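 active = melting point raised past a set limit in the mean and every replicate; three in four hits are not shown here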
Target sequence (Q9HCT0 whole entry, looked up): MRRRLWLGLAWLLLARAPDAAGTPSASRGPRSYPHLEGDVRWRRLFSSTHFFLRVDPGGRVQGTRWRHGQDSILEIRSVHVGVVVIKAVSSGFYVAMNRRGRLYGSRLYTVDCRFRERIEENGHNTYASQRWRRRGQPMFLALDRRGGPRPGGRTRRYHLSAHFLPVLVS
T cruzi repl – inhibitors of intracellular T. cruzi growth, primary screen, luminescence, NIH3T3 host cells; AID 1885, 2009; 1.4% of 300,000 active; T. cruzi beta-gal in NIH3T3, 90 h; inhibition, % (no concentration beside the values);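 active = mean inhibition across valid replicates above about 55%, limit read from the data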;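 also: signal also drops with host cell toxicity which is not excluded here; 0% = plate median of DMSO wells and 100% = zero luminescence signal; higher percent means less beta-gal luminescence so fewer parasites; stock transfer was 50 nL into about 50 µL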
UCH37 DUB inh – inhibitors of human UCH37 deubiquitinase, primary screen, biochemical, Ub-AMC cleavage, fluorescence; Ubiquitin carboxyl-terminal hydrolase isozyme L5 (Homo sapiens), Q9Y5K5; purified proteasome/UCH37; inhibition, % (test concentration not listed); 0.33% of 330,000 active; AID 588478, 2011;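 active = mean of two replicates above 20%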;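 also: 0% = compound-free wells with enzyme and 100% = wells lacking proteasome; stock transfer was 100 nL into about 20 µL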
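Material: human UCH37 enzyme supplied as purified proteasome complex. Measure: % inhibition of Ub-AMC cleavage fluorescence. Medium: pH 7.4 Tris-HCl (50 mM) with ovalbumin, ATP-MgCl2, DTT. Times: 30 min preincubation with enzyme, 25 min cleavage at room temperature. Detection: AMC fluorescence intensity at 355/460 nm.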
E coli growth – E. coli growth inhibition, primary screen, OD600. OD600 absorbance (no concentration beside the values). 0.21% of 330,000 active. Escherichia coli growth, 23 h; stronger effect = lower value;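 active = OD600 absorbance below the run mean of sample wells minus 3.6 SD, in any replicate, cut at about 0.56 in these data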;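 also: stock transfer was 300 nL into about 60 µL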
AF4-AF9 inh – inhibitors of AF4 peptide binding to AF9, primary screen, biochemical, AlphaScreen, biotin-AF4 peptide, FLAG-AF9, single point. Protein AF-9 (Homo sapiens), P42568. inhibition, % at 10 µM. 0.47% of 350,000 active. AID 651704, 2012;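 active = every replicate reaching a set inhibition limit, whatever the replicate mean, cut at about 25% in these data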;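 also: 0% = plate neutral control median and 100% = total signal loss; the record names both 10 and 1 µM as test concentration; the first replicate is given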
Target sequence (P42568 whole entry, looked up): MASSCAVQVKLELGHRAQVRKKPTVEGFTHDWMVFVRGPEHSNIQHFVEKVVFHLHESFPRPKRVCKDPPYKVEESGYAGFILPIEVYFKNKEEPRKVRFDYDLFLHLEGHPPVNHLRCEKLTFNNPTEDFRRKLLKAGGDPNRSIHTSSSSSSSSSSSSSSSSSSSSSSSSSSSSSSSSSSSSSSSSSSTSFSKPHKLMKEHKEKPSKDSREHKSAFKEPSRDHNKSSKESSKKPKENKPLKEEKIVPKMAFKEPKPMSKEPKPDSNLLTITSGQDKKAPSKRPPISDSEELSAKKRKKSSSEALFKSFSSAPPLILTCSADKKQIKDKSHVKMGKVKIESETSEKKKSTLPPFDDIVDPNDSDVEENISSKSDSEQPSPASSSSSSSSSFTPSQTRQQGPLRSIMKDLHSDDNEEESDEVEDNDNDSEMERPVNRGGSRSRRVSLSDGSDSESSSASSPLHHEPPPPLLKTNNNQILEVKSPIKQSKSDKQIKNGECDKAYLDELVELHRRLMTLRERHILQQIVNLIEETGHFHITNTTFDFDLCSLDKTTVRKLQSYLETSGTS
Beta apoptosis – inhibitors of cytokine-induced beta cell apoptosis, primary screen, luminescence | AID 435005, 2010 | protection from apoptosis, % (test concentration not listed) | 0.8% of 300,000 active | INS-1E cytokine-induced death, ATP luminescence, 48 h; percent of positive-control rescue, neutral wells zero;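 active = all replicates at 75% or more, or half of them and the mean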;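 also: 0% = cytokine-treated negative control wells and 100% = positive control rescue; higher means more ATP so stronger rescue from cytokine killing; wells of about 40 µL received 100 nL stock; the first replicate is given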
A1 inh – caspase 3/7 activation in MEF A1-2A-BIM cells, primary screen, A1 inhibitor project, cell-based, luminescence, HTS | Caspase-Glo 3/7 luminescence, 3 h; percent of clofoctol response, vehicle zero | caspase activation, % (no concentration beside the values) | 0.066% of 330,000 active | AID 2462, 2010;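 active = over half of replicate activation scores above 10%, or exactly half above 10 with the replicate mean above 10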;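 also: wells of about 30 µL received 50 nL stock; many hits fall short of the cut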
Ecoli rRNA inh OD600 – further read-out of Ecoli rRNA inh, marked with its call; OD600 change, %; measured here: OD600 growth;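 optical density of the mix in the first replicate; 0 = DMSO median and -100 = no signal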
Ecoli rRNA inh RFP – also measured in Ecoli rRNA inh; calls as there; RFP signal change, %; measured here: RFP humanized mutant strains;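 first replicate; 0 = DMSO median and -100 = no signal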
An asterisk follows results filed as active; i = inactive; . = no result given.

SMILES	Ecoli rRNA inh	Ecoli rRNA inh OD600	Ecoli rRNA inh RFP	FGF22 binding	T cruzi repl	UCH37 DUB inh	E coli growth	AF4-AF9 inh	Beta apoptosis	A1 inh
CCOC(=O)c1c(C)[nH]c(C(=O)COc2ccc3c(c2)OCO3)c1C	.	.	.	.	11	2.6	0.76	.	-2	-2.0
COc1ccc(CCN(C)C(=O)CSc2nnc(C3CC3)n2N)cc1OC	14	19	0.9	i	-12	2.8	0.69	3.9	-4	0.5
CCOC(=O)N1CCN(C(=O)CCc2ccc(S(=O)(=O)NCC(C)C)cc2)CC1	4	2	1.9	i	-3	2.9	0.69	4.3	-5	0.2
O=C(CN1CCN(C(=O)N2CCOCC2)CC1)Nc1ccc(Br)cc1	.	.	.	.	-9	0.8	0.71	.	0	1.8
O=C(COc1ccc(Cl)cc1Br)N1CCN(S(=O)(=O)c2ccccc2)CC1	-5	-46	-7.3	i	9	.	.	-1.0	9	0.3
COc1ccc(/C=C2/C(=O)N(c3nc4ccccc4s3)N=C2CSc2ccc(Cl)cc2)cc1	0	11	22	i	4	-6.2	0.73	-3.1	-1	0.5
COc1ccc(CN(Cc2nc3ccccc3c(=O)[nH]2)C(=O)NC2CCCCC2)cc1	.	.	.	.	-17	-0.2	0.73	.	12	-1.8
COc1ccc(OC)c(CC(NC(C)=O)C(=O)NC2CCN(C(=O)c3cccc(C)c3)CC2)c1 (centres undefined)	10	15	-1.4	i	-6	5.6	0.69	2.8	.	.
COc1cc(CNc2cccc(F)c2)cc(Br)c1O	-19	-18	1.0	i	-23	-2.4	0.73	3.4	-7	0.2
CNc1nc(C)cc(C)c1S(=O)(=O)c1ccc(Cl)cc1	.	.	.	.	14	0.1	0.68	.	.	-0.1
COc1ccc(Cl)cc1NC(=O)COC(=O)C1CC1	3	9	-0.8	i	.	-0.1	0.64	1.6	-2	-0.2
CC(C)[C@H](NC(=O)c1ccco1)C(=O)OCC(=O)Nc1ccccc1OC(F)F	-3	-1	-0.4	i	-12	2.1	0.71	1.3	5	1.6
CCn1cnc2c1c(=O)n(CC(=O)NCc1ccccc1)c(=O)n2Cc1ccccc1	22	21	1.0	i	7	-0.1	0.66	0.4	-1	1.8
CC(/C=N/NC(=O)c1cc(-c2cccn2C)n[nH]1)=C\c1ccccc1	-40*	-23*	-8.8*	i	-12	.	.	1.4	12	-0.9
Cc1ccc(CN(C(=O)CNC(=O)c2cccs2)C(C(=O)NCC2CCCO2)c2ccccc2)cc1 (centres undefined)	.	.	.	.	1	-0.1	0.67	.	4	-0.3
FC(F)Sc1ccc(NC(=S)NCC2CCCCC2)cc1	-53	-79	-31	i	23	2.7	0.54	2.3	11	-0.7
CCOC(=O)NNC(=O)c1[nH]c2ccc(Br)cc2c1-c1ccccc1	-57	-82	-19	i	24	1.7	0.66	6.3	-7	0.5
COc1ccc(NC(=O)c2ccco2)cc1NC(=O)c1ccc(C)cc1	.	.	.	.	-1	3.1	0.69	.	-1	-0.7
CC(=O)N1c2ccc(S(=O)(=O)N3CCC(C(=O)NC4CCC(C)CC4)CC3)cc2CC1C (centres undefined)	-1	3	-2.6	i	7	-2.4	0.71	-15	3	1.1
COCCNC(=O)c1ccc2c(c1)ncn2-c1ccc(C)c(Cl)c1	-10	-8	0.7	i	-6	1.6	0.69	-1.5	0	1.4

Profiles, quoted from the list. Order of values: Ecoli rRNA inh | Ecoli rRNA inh OD600 | Ecoli rRNA inh RFP | FGF22 binding | T cruzi repl | UCH37 DUB inh | E coli growth | AF4-AF9 inh | Beta apoptosis | A1 inh
CCOC(=O)NNC(=O)c1[nH]c2ccc(Br)cc2c1-c1ccccc1 in the list: -57 | -82 | -19 | i | 24 | 1.7 | 0.66 | 6.3 | -7 | 0.5
CC(/C=N/NC(=O)c1cc(-c2cccn2C)n[nH]1)=C\c1ccccc1 in the list: -40* | -23* | -8.8* | i | -12 | . | . | 1.4 | 12 | -0.9
COc1ccc(Cl)cc1NC(=O)COC(=O)C1CC1 in the list: 3 | 9 | -0.8 | i | . | -0.1 | 0.64 | 1.6 | -2 | -0.2

Further results
SMILES	Ecoli rRNA inh	Ecoli rRNA inh OD600	Ecoli rRNA inh RFP	FGF22 binding	T cruzi repl	UCH37 DUB inh	E coli growth	AF4-AF9 inh	Beta apoptosis	A1 inh
CCN(CC)c1ccc(-c2n[nH]c(=S)n2-c2ccccc2)cc1	-4	-26	3.2	i	-3	-19	0.68	-7.3	15	0.2
COCCNC(=O)c1cc2c3ccccc3n(C)c2s1	.	.	.	.	-19	-27	0.69	.	-3	-0.1
CCn1c(=O)cc(SCC(=O)N2CCN(c3ccccc3OC)CC2)c2ccccc21	.	.	.	.	9	4.5	0.75	.	-11	0.0
COc1cccc(CN(C)C(=O)c2cc(S(=O)(=O)N3CCCC3)ccc2C)c1OC	3	-11	4.8	i	.	-2.3	0.73	-0.3	-3	-0.5
COc1ccc(NC(=O)CSc2nnnn2C2CCCCC2)cc1	5	9	-0.5	i	1	-0.1	0.59	-0.2	-11	0.0
CCN1C[C@@H]2[C@@H]3C(=O)N(C)C(=O)[C@@H]3[C@](C)(C1=O)N2C(=O)c1ccc(Cl)cc1	-1	0	3.6	i	.	4.6	.	-3.7	.	.
Cc1[nH]ncc1-c1nc2ccccc2[nH]1	10	14	-1.2	i	-16	-10	0.68	-1.6	-1	-1.2
Cc1cc(C)c(S(=O)(=O)N2CCN(C(=O)c3cc4ccccc4oc3=O)CC2)c(C)c1	11	14	-0.3	i	.	1.0	0.7	1.2	-3	0.2
COC(=O)CSC(C)C(=O)Nc1nnc(C(C)C)s1 (centres undefined)	1	2	0.5	i	-5	3.4	0.68	0.3	-5	0.6
Cc1ccc(C(=O)NC2CCCCCC2)cc1N1CCCC1=O	.	.	.	.	9	4.4	0.7	.	-3	-0.3
CCOC(=O)c1cc(NC(=O)c2cccs2)ccc1N1CCOCC1	1	-8	-1.4	i	-12	4.6	0.69	2.3	-6	0.1
Cc1ccc(C(=O)c2cncc(Br)c2)cc1	.	.	.	.	17	-0.2	0.72	.	0	0.5
CCOC(=O)C1=C(CNCc2ccccc2Cl)NC(=O)NC1c1ccc2c(c1)OCO2 (centres undefined)	.	.	.	.	-3	4.3	0.71	.	0	-0.4
CCOc1ccc(NC(=O)CSC(N)=O)cc1	.	.	.	.	-13	3.0	0.73	.	-5	0.7
CCc1ccccc1NC(=O)C/C(C)=N/NC(=O)COc1ccccc1C	4	6	-0.3	i	-9	.	.	-4.6	3	-0.2
COCCn1c(SCC(=O)NCc2ccc(OC)c(OC)c2)nc2ccccc21	7	-2	-0.3	i	11	3.4	0.69	-0.8	-7	0.7
CCOCCCNC(=O)C1CCC(CNS(=O)(=O)c2ccc(OC)cc2)CC1 (centres undefined)	0	-5	-4.7	i	3	1.1	0.69	-1.7	-12	-0.7
Cc1nn(CC(O)Cn2c3c(c4ccccc42)CCN(C)C3=O)c(C)c1Br (centres undefined)	.	.	.	.	12	-11	0.68	.	.	0.4
COc1ccc(NC(=O)CSc2nc3ccccc3c(=O)n2Cc2cccs2)c(OC)c1	.	.	.	.	-5	5.9	0.7	.	4	0.4
Cc1ccc(/C=C2\SC(=S)N(CCCC(=O)Nc3cccc(C(=O)O)c3)C2=O)cc1	6	11	2.3	i	7	9.8	0.67	-3.0	-2	-0.5

Shown with bars between the fields: entries from further up
mol | Ecoli rRNA inh | Ecoli rRNA inh OD600 | Ecoli rRNA inh RFP | FGF22 binding | T cruzi repl | UCH37 DUB inh | E coli growth | AF4-AF9 inh | Beta apoptosis | A1 inh
CCOc1ccc(NC(=O)CSC(N)=O)cc1 | . | . | . | . | -13 | 3.0 | 0.73 | . | -5 | 0.7
CCc1ccccc1NC(=O)C/C(C)=N/NC(=O)COc1ccccc1C | 4 | 6 | -0.3 | i | -9 | . | . | -4.6 | 3 | -0.2
COCCn1c(SCC(=O)NCc2ccc(OC)c(OC)c2)nc2ccccc21 | 7 | -2 | -0.3 | i | 11 | 3.4 | 0.69 | -0.8 | -7 | 0.7
CCOCCCNC(=O)C1CCC(CNS(=O)(=O)c2ccc(OC)cc2)CC1 (centres undefined) | 0 | -5 | -4.7 | i | 3 | 1.1 | 0.69 | -1.7 | -12 | -0.7
Cc1nn(CC(O)Cn2c3c(c4ccccc42)CCN(C)C3=O)c(C)c1Br (centres undefined) | . | . | . | . | 12 | -11 | 0.68 | . | . | 0.4

(list continues)
SMILES	Ecoli rRNA inh	Ecoli rRNA inh OD600	Ecoli rRNA inh RFP	FGF22 binding	T cruzi repl	UCH37 DUB inh	E coli growth	AF4-AF9 inh	Beta apoptosis	A1 inh
COc1cccc(-n2ccn(CC(=O)NCCc3ccccc3)c(=O)c2=O)c1	17	17	-0.9	i	-13	0.4	0.61	-1.7	-7	-0.1
Cn1cc(CNCc2cn[nH]c2-c2ccc(F)cc2)c(-c2ccc3c(c2)OCCO3)n1	2	6	0.4	i	-12	5.3	0.73	-3.9	-3	0.0
CCOC(=O)C1(CCOC)CCN(Cc2cc3ccccc3s2)CC1	2	1	0.9	i	7	5.8	0.67	2.5	-13	1.2
COc1ccc(N2CCN(C(=O)CN3C(=O)NC4(CCCCC4C)C3=O)CC2)cc1 (centres undefined)	8	10	2.2	i	.	-0.3	0.64	-0.1	-4	-0.2
O=C(CCn1ccnc1)Nc1nc2ccccc2[nH]1	.	.	.	i	-18	0.6	0.71	-0.3	-1	1.3
O=C(N[C@H]1C/C=C\C[C@@H](CC(=O)N(CCO)Cc2ccccc2)C(=O)N2CCC[C@H]2COC1=O)OCC1c2ccccc2-c2ccccc21	1	7	-1.7	i	.	2.1	0.69	-1.0	9	0.2
O=C(CNC(=O)c1ccco1)OCC(=O)c1ccccc1	.	.	.	.	2	-1.8	0.66	.	-5	0.7
CC(C)Cc1ccc(C(=O)NCCOc2ccccc2)o1	-4	-4	1.9	i	0	3.7	0.63	6.5	2	-1.5

Screens: PubChem, several laboratories

These rows are one share of the data. The share of hits here may be higher or lower than overall.
